# High-throughput results from PubChem BioAssay.
# AID504770: growth inhibitors of E. coli YBA685 in a screen for V. cholerae RctB (chromosome II replication) inhibitors; z-score (test concentration not listed); E. coli YBA685 rctB-dependent plasmid, OD600 growth, 3 h; hits give low values; 0.27% of 130,000 active; AID 504770;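 active = z-score under -2 on both plates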;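 note: wells of about 30 µL received 100 nL stock; score is relative to mean and SD of the test wells; the first replicate is given; strong numbers were not always called active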
# Ba CapD inh: inhibitors of Bacillus anthracis CapD enzyme. purified CapD enzyme, fluorescence intensity read-out; hits give low values; some hits fall short of the stated cut. z-score (no concentration beside the values). 0.23% of 140,000 active;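 active = z-score under -4 in either of two replicates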;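 note: stock transfer was 100 nL into about 40 µL; score is relative to mean and spread of the plate; one replicate is shown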
# Numbers without * were called inactive; i = inactive; / = not tested or not shown.
SMILES | AID504770 | Ba CapD inh
O=C(O)Cn1c(Cc2ccccc2)nc2ccccc21 | -1.4 | 0.19
O=C(CCOc1ccccc1)OCCN1CCCC1=O | -0.55 | 0.13
C=CCN1C(=O)C(C(C)CC)NC1=S (centres undefined) | -0.75 | 63
CCc1ccc(OCC(=O)N(C)C2CCS(=O)(=O)C2)cc1 (centres undefined) | 1.1 | 0.05
Cc1ccc(S(=O)(=O)N2CCC[C@H]2C(=O)Nc2ccc(-c3nnc4n3CCCCC4)cc2)cc1 | 0.05 | /
CCn1cc(C(=O)NN)c(=O)c2cc(F)c(N3CCCC3)cc21 | -0.75 | 0.33
OC1(Cc2ccccc2)CCNCC1 | -0.8 | -1.2
CCOC(=O)c1[nH]c(CSc2nncs2)c(C(=O)OCC)c1C | -0.45 | /
COC(=O)N1N=C(CC(C)C)CC1(O)C(F)(F)F (centres undefined) | -0.45 | -0.025
Cc1nc(COc2ccccc2Cl)sc1-c1ccnc(N)n1 | 0.2 | 5.6
O=C1/C(=C/c2ccc3c(c2)OCO3)SC(=S)N1CCC(=O)N1CCCc2ccccc21 | / | -0.23
N#CCc1nc2sc3c(c2c(=O)[nH]1)CCCC3 | 0.4 | 1.2
CSc1sc(C(=O)NNC(=O)c2cc(=O)n(-c3ccccc3)[nH]2)c2c1C1(CCC2)SCCS1 | / | -0.41
COc1ccc(Nc2cc(N3CCOCC3)c3nonc3c2[N+](=O)[O-])cc1 | / | -0.06
COc1ccc2nc3oc(C(=O)NCCCN4CCc5ccccc5C4)cc3cc2c1 | -0.8 | 31
COc1cc(CN2CC=C(c3ccc(F)cc3)CC2)cc(OC)c1 | 0.65 | 0.7
COc1ccc(N2C(=S)N=C(Nc3cccc(C)c3)C23CCCC3)cc1 | / | 0.2
COC(=O)c1sccc1Oc1nccnc1C#N | / | 0.31
O=C(CN1CC(=O)Nc2ccccc21)Nc1ccc2c(c1)OCCCO2 | 1 | /
COc1ccc(N2C(=O)CSC23CCC(C)CC3)cc1 (centres undefined) | 0.25 | -0.45

# Additional results.
SMILES | AID504770 | Ba CapD inh
O=C(COCc1cc(-c2ccco2)on1)N1CCCc2ccccc21 | -0.55 | 0.69
O=C(CSc1nc(-c2ccccc2)nc2c1CCCC2)N1CCOCC1 | -0.6 | -0.32
COc1ccccc1N(CN1CCCC1=O)C(=O)COc1ccccc1 | -1.1 | 0.02
Cc1cc(=O)oc2cc(OCC(=O)Oc3ccc4c(c3)OCO4)ccc12 | -0.15 | /
O=C(Nc1ccc2nc3n(c(=O)c2c1)CCCCC3)c1ccccc1Cl | 1 | 0.1
CC(=O)Nc1ccc(C(=O)OCC(=O)N2CCCC2=O)cc1 | -0.05 | /
CCOC(=O)c1c(C)oc2nc(CSc3nnc(-c4ccccc4)n3-c3ccc(Cl)cc3)nc(N)c12 | 0.05 | /
CC(C)C(=O)NCc1ccc2[nH]c3c(c2c1)CCCC3 | 1.4 | 0.21
CC(C)n1ncc2c(C(=O)NC3=NCCS3)cc(-c3ccccc3)nc21 | -0.8 | /
CC(Oc1ccc(Cl)cc1Cl)C(=O)NC1=NCCS1 (centres undefined) | / | -0.04
CCN1CCc2c(OCc3ccc(C)cc3)cccc2C1=O | 1.2 | 0.47
O=C(Nc1ccccc1C(=O)N1CCC(c2c[nH]c3ccccc23)CC1)c1cccc(C(F)(F)F)c1 | / | -0.29
CCOc1cc(/C=C2/NC(=S)NC2=O)ccc1OCc1ccc(Cl)cc1Cl | / | 0.55
O=C(Nc1ccc(F)cc1F)c1sccc1Oc1ccccc1[N+](=O)[O-] | / | -0.55
O=c1c2ccccc2nc(-c2ccc(Br)cc2)n1Cc1cccc([N+](=O)[O-])c1 | / | -0.12
CN(C)c1cccc2c(S(=O)(=O)NNC(=O)c3ccc(-n4cccc4)cc3)cccc12 | / | -0.52
N/C(=N\S(=O)(=O)c1ccc(Br)cc1)c1ccc(Cl)cc1 | -0.5 | 0.42
S=C(Nc1ccccc1)N1CCn2c3c(c4cc(C5CCCCC5)ccc42)CCCC31 (centres undefined) | / | -0.39
C1Cc2nn3c(c2C1)n1nc2c(c1n1nc4c(c31)CCC4)CCC2 | 0.7 | /
O=c1[nH]nc(-c2ccccc2)c2c1-n1nnnc1NC2c1ccccc1 (centres undefined) | 0.25 | 2.1

# Complete entries from above:
# Record of O=C(Nc1ccc(F)cc1F)c1sccc1Oc1ccccc1[N+](=O)[O-] = AID504770 = /; Ba CapD inh = -0.55
# Record of O=C(COCc1cc(-c2ccco2)on1)N1CCCc2ccccc21 = AID504770 = -0.55; Ba CapD inh = 0.69
# Record of O=c1c2ccccc2nc(-c2ccc(Br)cc2)n1Cc1cccc([N+](=O)[O-])c1 = AID504770 = /; Ba CapD inh = -0.12

# Next entries follow:
Structure,AID504770,Ba CapD inh
O=C(O)C1CCCCC1C(=O)N1CCCc2ccccc21 (centres undefined),0.4,0.39
CCOC(=O)CSc1nc2sc3c(c2c(=O)[nH]1)CCC(C(C)(C)C)C3 (centres undefined),/,-0.22
Cc1ccc2nc(SCC(=O)O)cc(C)c2c1,-0.25,14
CSc1nc2ccc(NC(=O)COc3ccccc3)cc2s1,3.1,i
CCOc1cc(CN2CCN(C(=O)COc3ccc(C)cc3)CC2)ccc1OC,-0.2,-0.34
COc1cc(C(=O)O)cc2c1OCCO2,-2.3,/
CCCOC(=O)C1C2C=CC3(CN(CCc4ccccc4)C(=O)C13)O2 (centres undefined),-0.65,0.54
O=C(COC(=O)c1cc(-c2ccccc2)nn1-c1ccccc1)Nc1cccc(F)c1,0.45,-0.59
O=C1C=CC(=O)N1c1ccc2c(c1)OCO2,-2*,/
COc1ccc(/C=C/C(=O)N2CCNC(=O)C2)c(OC)c1,-0.2,/
CCOc1cc(C2C(C(=O)OC)=CN(Cc3ccc(F)cc3)C=C2C(=O)OC)cc(Br)c1O,/,27
COC(=O)c1cc(OC(=O)c2ccc(=O)[nH]c2)cc(C(=O)OC)c1,2.4,/
Cc1ccc(CC2SC(N)=NC2=O)cc1Cl (centres undefined),-0.75,-0.36
CN(C1CCCCC1)S(=O)(=O)c1ccc(C(=O)Nc2ccccc2)cc1,0.25,-0.55
CCOC(=O)CC(=O)CSc1nc2c(sc(=S)n2-c2ccc(C(=O)OCC)cc2)c2nc3ccccc3n12,/,3.9
NC(=O)c1cccc(NC(=O)C(F)(F)F)c1,-0.25,0.31
Nc1c(Nc2ccc(C(=O)O)cc2)c2ccccc2oc1=O,1.3,-1.1
CC(NCC(=O)Nc1ccccc1C(=O)NC1CC1)c1ccc(F)cc1 (centres undefined),-0.3,/
COc1ccc(C2=Nc3ccccc3NC(C3CC3)=N2)cc1,0.5,0.45
Cc1ccsc1CNC(=O)c1ccccc1C(=O)O,0,0.19
CCOc1ccc(CNc2ccc(N3CCN(Cc4ccccc4)CC3)cc2)cc1,-0.7,1.1
Cc1ccc(NCC(O)Cn2c(-c3ccccc3)c(-c3ccccc3)c3cc(C)ccc32)cc1 (centres undefined),/,36
CCCCN1C=C(c2ccc3ccccc3n2)C(C[N+](=O)[O-])c2ccccc21 (centres undefined),/,2.1
Cc1cccc(-n2c(SCc3cc(=O)n4cc(Br)ccc4n3)nc3[nH]ncc3c2=O)c1,/,2
CNS(=O)(=O)c1cccc(C(=O)OCC(=O)N(C)c2ccccc2)c1,-0.3,/
CCc1c(C(=O)NC(C)C2CCCO2)csc1C (centres undefined),-0.2,1.1
COc1ccc(-c2nnn(CC(=O)N(Cc3ccco3)C(C(=O)NCC3CCCO3)c3ccco3)n2)cc1 (centres undefined),-0.45,/
COc1cccc(CNCC(=O)N2C(C)CCCC2C)c1 (centres undefined),-0.15,/
N#CC1=C(N)Oc2c(c(=O)oc3ccccc23)C1c1ccc(OC(=O)c2ccco2)cc1 (centres undefined),/,-0.52
COc1ccc(OCC(=O)Sc2ccc(Cl)cc2)cc1,-0.2,-0.17

# Given with values under each structure: entries from further up.
# Results follow in this order: AID504770, Ba CapD inh
- COc1ccc(Nc2cc(N3CCOCC3)c3nonc3c2[N+](=O)[O-])cc1
→ /, -0.06
- COc1ccc2nc3oc(C(=O)NCCCN4CCc5ccccc5C4)cc3cc2c1
→ -0.8, 31
- COc1cc(CN2CC=C(c3ccc(F)cc3)CC2)cc(OC)c1
→ 0.65, 0.7
- COc1ccc(N2C(=S)N=C(Nc3cccc(C)c3)C23CCCC3)cc1
→ /, 0.2
- COC(=O)c1sccc1Oc1nccnc1C#N
→ /, 0.31

# Additional entries.
Structure,AID504770,Ba CapD inh
O=C(Nc1cccnc1)c1cccn(Cc2ccc(Cl)c(Cl)c2)c1=O,/,0.045
COc1cc(C(=O)NC(c2ccc(Cl)cc2)c2cc([N+](=O)[O-])c3cccnc3c2O)cc(OC)c1OC (centres undefined),/,-0.93
COc1cc(C2C3=C(CCCC3=O)OC3=C2C(=O)CCC3)cc(OC)c1OC,/,0.66
Cc1cc(C)c(NC(=O)Cn2c3ccccc3c3nc4ccccc4nc32)c(C)c1,/,-0.12
COc1ccc(N2C(=O)CC(C(=O)NC3CCCCC3)C2c2ccc(F)cc2)cc1 (centres undefined),-0.4,0.16
CCCn1cc(SCC(=O)Nc2nnc(SCC)s2)c2ccccc21,0.05,-0.57
COc1ccc(Cl)cc1N(CC(=O)Nc1ccccc1C(=O)N1CCOCC1)S(C)(=O)=O,-0.6,0.21
CC(C)(C)C1CCC(OC(=O)c2ccncc2)CC1 (centres undefined),2.3,-1.5
Cn1nc(C(=O)NCC2CCCO2)c2ccccc2c1=O (centres undefined),-0.55,-0.5
CCOc1ccc(C(=O)NC2CCN(CC(=O)NCc3ccccc3)CC2)cc1,2.2,/
CCOC(=O)C1=C(CC)Nc2ccccc2N=C1N,-0.8,/
O=C(Nc1ccc2nc(N3CCOCC3)sc2c1)C1CCCN1C(=O)c1cccs1 (centres undefined),-0.1,/
COC(=O)C1=C(C)N(c2ccccc2)/C(=C/c2ccc(OC)cc2)C1=O,1.6,-0.17
O=C(N/N=C/C=C/c1ccccc1)c1n[nH]c2c1CCC2,1.2,-0.34
NC(=O)Cc1ccc(C(=O)CSc2nnc(-c3cccs3)n2C2CC2)s1,0,/
CCOC(=O)c1c(-c2ccco2)csc1NC(=O)CSc1nnc2sc3ccccc3n12,/,-0.22
Cc1ccc(-c2nc(CS(=O)CC(=O)NC3CC3)c(C)o2)cc1 (centres undefined),1.3,-0.23
O=C(Cc1n[nH]c(=O)c2ccccc12)NCCN1C(=O)S/C(=C\c2ccc(F)cc2)C1=O,-0.5,/
O=C(CSc1nnc(-c2cccnc2)n1-c1ccccc1)c1c[nH]c2ccccc12,/,-0.66
CN(C)c1nc(N(C)C)nc(N(C#N)CCOc2ccccc2)n1,/,0.22
C=CCc1c(C)[nH]c(=S)[nH]c1=S,-0.8,/
CCN(CC)C(=O)c1sc(NC(=O)c2cc(-c3ccc(Cl)cc3)nc3ccccc23)c(C(=O)OC(C)C)c1C,/,0.075
Cc1cccc(C)c1N(CC(O)Cn1c2ccccc2c2ccccc21)S(C)(=O)=O (centres undefined),0.4,0.19
ClC(Nc1nc(-c2ccccc2)[n+](-c2ccccc2)s1)C(Cl)(Cl)Cl (centres undefined),/,0.1
CC1=NN(c2ccccc2)C2(SC(c3ccc([N+](=O)[O-])cc3)=NN2c2ccccc2)c2ccccc21 (centres undefined),/,-0.11
Cc1c(Br)c([N+](=O)[O-])nn1CC(=O)Nn1c(-c2cccs2)nc2ccccc2c1=O,/,-0.42
CCOC(=O)C1C(=O)NC(SCC(=O)Nc2ccccc2CC)=C(C#N)C1c1ccccc1OCC (centres undefined),/,-0.56
O=C(O)CC1(CC(=O)Nc2ccc3ccccc3n2)CCCCC1,0.2,3.4
O=C(O)C1Cc2c([nH]c3ccccc23)C(c2ccc3c(c2)OCO3)N1 (centres undefined),/,5.4
O=C(CN1C(=O)N(c2ccc(Cl)cc2)S(=O)(=O)c2ccccc21)N1CCCc2ccccc21,-0.3,0.54

# Next section.
Structure,AID504770,Ba CapD inh
COc1ccc2[nH]c(C)c(CCN(Cc3cccs3)C(=S)Nc3cccc(C)c3)c2c1,3.7,-1.1
Cc1ccc(S(=O)(=O)NCCc2cc3ccc(C)cc3[nH]c2=O)cc1,2.7,-1.2
COc1cc(/C=c2/sc3n(c2=O)NC2(c4ccccc4)N(C)C(=O)N(C)C2(c2ccccc2)N=3)ccc1O (centres undefined),/,0.025
O=C(O)C1CCCN1c1nc(-c2ccccc2)c2cc([N+](=O)[O-])ccc2n1 (centres undefined),/,0.27
CC(C)CC(=O)N1C(=O)c2cccc3c(S(=O)(=O)N(C)C)ccc1c23,-0.7,/
COc1cccc2c1OC(c1cccc(F)c1)N1N=C(c3cccnc3)CC21 (centres undefined),/,-0.38
c1ccc(C2=N[C@H](c3ccccc3)[C@H](c3ccccc3)N2)cc1,-0.65,7.2
COc1c2occc2c(OC)c2c(=O)cc(C(F)(F)C(F)(F)C(F)(F)C(F)(F)F)oc12,/,0.23
Cc1ccc(NC(=O)CC2SC(=Nc3ccc(C)cc3C)N(CCN3CCOCC3)C2=O)cc1 (centres undefined),0,/
CCOC(=O)c1c(NC(=O)c2ccc(C)c([N+](=O)[O-])c2)sc(C(=O)Nc2cccc(Cl)c2C)c1C,/,-0.005
Cc1ccc(S(=O)(=O)Nc2ccc(C(O)(C(F)(F)F)C(F)(F)F)cc2)cc1,-0.3,/
Nc1c(C(=O)c2ccco2)sc2nsc(SCCN3CCOCC3)c12,-0.2,-0.79
Cc1nc2ccccc2c2oc(C(=O)NCCC3=CCCCC3)cc12,-0.15,0.73
